# Screening results as filed in PubChem.
# Sa RN4220 lethal: growth inhibition of S. aureus RN4220, primary screen, OD600; 16 h; inhibition, % (concentration not given with the values); 330,000 compounds, 0.33% hits;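 active = z-score of -3 or lower and OD600 up to 0.18 on both plates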;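 also: plate controls were untreated cells for no effect and reference antibiotic for full effect; stock transfer was 100 nL into about 80 µL; one replicate is shown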
# PrP UTR inh: inhibition of PrP 5' UTR reporter expression | cell-based PrP 5' UTR mRNA reporter, plate reader | inhibition, % (concentration not given with the values) | 340,000 compounds, 0.35% hits;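 active = every replicate at 50% or more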;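 also: 0 = median of the neutral control wells; tested in H4 reporter cells; numbers are from one replicate; inactives centre near -14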
# BJeLR lethal: MLPCN primary cell-based screen for lethality selective to Ras in HRASV12 cells; BJeLR (HRASV12) viability, CellTiter-Glo ATP luminescence, 48 h; reference of the scale not given here; 300,000 compounds, 0.17% hits; inhibition, % (no concentration beside the values);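 active = replicate mean above 50%; inconclusive = above 50% but judged a plate artefact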;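 also: 50 nL library stock added to about 25 µL; numbers are from one replicate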
# Sa ugtP lethal: growth inhibition of ugtP-null S. aureus, primary screen, RN4220 ugtP deletion, OD600 | 16 h; some inactives read as strong as hits | growth inhibition, % (no concentration beside the values) | 330,000 compounds, 0.54% hits;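 active = z-score under -3 and OD600 up to 0.15 on both plates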;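 also: plate controls were untreated wells for no effect and antibiotic for full effect; wells of about 80 µL received 100 nL stock; the first replicate is given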
# Autofluor counter: counter-screen for toxin protease inhibitors: compound fluorescence | fluorescence intensity (test concentration not listed) | compound autofluorescence counterscreen, microsphere flow cytometry; hits give high values | 360,000 compounds, 3.1% hits;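 active = at least 3 SD above the mean of all compounds, about 16000 in these data; inconclusive = too few beads counted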;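 also: 100 nL of 1 mM stock went into each well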
# Mtb hypoxia rep: PubChem AID 1159583; 300,000 compounds, 0.1% hits; fluorescence inhibition, % (no concentration beside the values); M. tuberculosis hypoxia-regulated fluorescent reporter, fluorescence;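 active = 35 to 45% if threefold the growth effect, above 45% if 1.5-fold the growth effect; inactive = the rest, general growth blockers included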;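 also: wells of about 50 µL received 100 nL stock; 0% = vehicle wells and 100% = reference inhibitor wells; whole bacteria with a GFP reporter of the hypoxia response; strong numbers were not always called active; many hits fall short of the cut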
# Mtb hypoxia rep growth: also measured in Mtb hypoxia rep; calls as there; growth inhibition, %; measured here: M. tuberculosis growth (absorbance);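 0% = vehicle and 100% = reference antibiotic; read after six days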
# * = called active by the depositor; u = inconclusive; x = not tested or not shown.
SMILES,Sa RN4220 lethal,PrP UTR inh,BJeLR lethal,Sa ugtP lethal,Autofluor counter,Mtb hypoxia rep,Mtb hypoxia rep growth
COc1ccc(-c2nnc3sc(COc4ccccc4)nn23)cc1,13,-3,-4,-9,20311*,11,11
COc1ccc(OC)c(S(=O)(=O)NCCC(C)C)c1,6.4,-20,-8,3,4234,14,7
COc1cc(CNCc2ccccc2)c(Br)cc1OC1CCCC1,7.1,-38,-3,1,2596,8,5
Cc1cccc(NC(=O)C(CCC(N)=O)NC(=O)OCc2ccccc2)c1 (centres undefined),6.6,-24,-12,2,6128,-13,4
CC(C)(C)NC(=O)C(c1ccncc1)N(C(=O)CNC(=O)c1ccco1)c1ccc(F)cc1 (centres undefined),1.9,-32,-8,4,3822,1,-1
CC(=O)C1C(=O)C=C(c2cccs2)CC1c1ccccc1 (centres undefined),4.3,-13,4,8,3274,9,4
C/C(=N/NS(=O)(=O)c1cccc([N+](=O)[O-])c1)c1ccc2c(c1)OCO2,x,-15,1,x,4536,x,x
CCOC(=O)CSC(=S)NC(=O)c1ccc(OC)cc1,-1.5,-24,-6,3,6988,6,7
COC(=O)C1=C(C)N(Cc2ccccc2)C(=NCc2ccccc2)NC1c1ccccc1 (centres undefined),-2.9,x,x,-5,x,-10,2
Cc1cc(NC(=O)COC(=O)C2CC(=O)N(c3ccccc3)C2)no1 (centres undefined),3.0,11,5,1,2937,-10,-13
Cc1ccc(Cl)cc1NC(=O)COC(=O)CN1C(=O)C2CCCCC2C1=O (centres undefined),2.0,-3,x,7,4155,4,-3
Cc1ccc(CNC(=O)CN(CCc2ccccc2)S(C)(=O)=O)cc1,3.6,-9,-3,-1,4883,2,-3
CN(c1ccc([N+](=O)[O-])cc1C=NNC(=O)COc1ccccc1)C1CCCCC1,-2.3,x,x,-14,x,2,-2
CC(=O)Nc1ccc(N=c2cc([N+](=O)[O-])cc(Cl)n2O)cc1,-2.7,x,9,7,3679,-9,-6
CCOC(=O)c1c(NC(=O)C(C)S(=O)(=O)c2cn(CC)c3ccccc23)sc2c1CCCC2 (centres undefined),-9.6,-19,2,-6,5593,10,8
NC(=O)C1CCN(c2ccc(C(F)(F)F)cc2[N+](=O)[O-])CC1,-1.0,-21,-3,1,21870*,0,1
C/C(=N/OCC(=O)Nc1ccc(C)cc1C)c1cccs1,x,-21,-5,x,2887,x,x
Cc1cccc(NC(=O)c2cc[n+]([O-])cc2)c1C,1.8,-15,-1,2,3982,4,1
CC1CCC/C(=C\Nc2ccccc2C(=O)O)C1=O (centres undefined),6.4,-11,-5,-2,9819,3,6
CC(C)(C)NC(=O)C(c1ccc(OCC(N)=O)cc1)N(C(=O)c1cccnc1)C1CC1 (centres undefined),-2.1,7,2,4,4527,x,x
COC(=O)Cc1ccc(N(Cc2ccccc2F)S(=O)(=O)c2ccc(C)cc2)cc1,9.7,-11,-8,17,2537,-3,2
Cn1c(N)c(C(=O)COC(=O)/C=C/c2ccccc2F)c(=O)n(C)c1=O,4.9,-17,x,-5,4212,17,8
CN(C)C=Nc1nc(-c2ccc3c(c2)OCO3)cs1,7.6,x,x,-5,x,11,8
COc1ccccc1OCc1ccc(C(=O)OCC2CCCO2)o1 (centres undefined),3.4,-22,-4,-2,2464,2,5
N#CC1=C(S)N(c2ccc(F)cc2)C(c2ccco2)NC1=O (centres undefined),-0.7,-36,1,2,4311,12,1

# Carrying on:
SMILES,Sa RN4220 lethal,PrP UTR inh,BJeLR lethal,Sa ugtP lethal,Autofluor counter,Mtb hypoxia rep,Mtb hypoxia rep growth
COCC(=O)N/N=C\c1ccccc1OC/C=C/c1ccccc1,x,-97,-5,x,6047,x,x
COc1ccccc1OCC(=O)N/N=C/c1cccc2cccnc12,x,-6,-1,x,5624,x,x
C[n+]1c(-c2ccccc2)cc(-c2ccc(O)cc2)cc1-c1ccccc1,0.9,-11,8,6,5450,18,10
CCOC(=O)C1CCCN(S(=O)(=O)c2c(C)noc2C)C1 (centres undefined),3.1,-18,8,8,5279,8,8
CCOC(=O)c1cnc2c(cnn2C)c1Oc1ccc(OC)cc1,16,-20,3,5,3973,5,15
COc1ccccc1NC(=S)NCc1ccc2c(c1)cc(C)n2C,3.5,-16,-8,4,2036,5,9
COCC1CCN(C(=O)C2CCC(=O)N(C3CCCCCC3)C2)CC1 (centres undefined),2.5,-14,0,3,u,5,-8
CCOc1ccc(S(=O)(=O)N2CCC(C(=O)N3CCN(Cc4ccccc4)CC3)CC2)cc1,0.8,5,3,-1,5998,-3,2
CN1C2=CC=CC=CC2=[N+](C)C12C=CC(=[N+]([O-])[O-])C=C2[N+](=O)[O-] (centres undefined),7.4,14,1,6,3395,16,1
COc1ccccc1OCCNC(=O)CNC(=O)c1ccc(C(C)(C)C)cc1,1.0,-6,x,-2,x,3,0
CC(C)N1CCC(=O)NC1=O,-1.0,-17,x,3,3097,20,7
O=C(CN1CCN(S(=O)(=O)c2ccccc2)CC1)Nc1ccc(Cl)c(Cl)c1,0.3,-13,5,-3,6155,14,0
O=C(Nc1nc2ccccc2[nH]1)c1ccc([N+](=O)[O-])cc1,2.0,-25,6,-16,2335,-2,-11
COCc1cc(=O)[nH]c(SCC(=O)c2ccccc2)n1,2.8,-6,10,3,4591,-5,10
O=C(O)C1CCCCC1C(=O)NCc1ccc(Cl)c(Cl)c1 (centres undefined),5.5,-14,5,7,4583,11,5
Cn1c(N2CCCC2)nc2c1c(=O)n(Cc1ccc(Cl)cc1)c(=O)n2C,-0.1,-3,-10,8,3308,13,13
COc1cccc(CC(=O)OCC(=O)NC2CCCCCC2)c1,1.0,-22,-11,4,5866,3,-1
O=C(OC(C(=O)NCc1ccco1)c1ccc(Cl)cc1)c1cccs1 (centres undefined),12,-20,-3,5,3025,8,8
Cc1ccc(NC(=O)CCC(=O)NN=Cc2ccc(O)cc2O)cc1,-1.4,x,x,14,x,6,3
Cn1cccc1C(=O)NC(=O)CSc1cccc[n+]1[O-],3.3,-21,7,4,3078,x,x
COc1ccc(-c2c(C#Cc3ccsc3)c3cc(-c4ccc5c(c4)OCO5)ccc3n2C)cc1,4.5,-18,x,3,3878,18,12
CC(=NN=C(N)SC1CC(=O)N(c2cccc(Cl)c2)C1=O)c1cccs1 (centres undefined),65,x,x,9,x,3,10
COc1cc(C)ccc1OCCOc1cc(C)ccc1Cl,5.5,-15,-4,24,2750,x,x
CC1CCCN(C(=O)c2ccc3nc[nH]c3c2)C1 (centres undefined),1.3,-22,-9,0,3548,2,5
O=C(COc1coc(CN2CCc3ccccc3C2)cc1=O)N1CCOCC1,x,-24,-7,x,5156,x,x

# New compounds follow.
SMILES,Sa RN4220 lethal,PrP UTR inh,BJeLR lethal,Sa ugtP lethal,Autofluor counter,Mtb hypoxia rep,Mtb hypoxia rep growth
CCOC(=O)CN1N=C(c2ccc(C)cc2)CCC1=O,1.1,-17,1,12,3187,10,3
COc1cc(C(=O)NNC(=O)Cc2cccs2)cc(OC)c1OC,2.3,-15,x,6,6512,-1,1
CC(=O)Oc1cccc(NC(=O)c2ccc3c(c2)C(=O)N(CC(C)C)C3=O)c1,1.9,-22,6,0,3488,-10,8
CCn1nnnc1SCC(=O)Nc1ccc(N(C)C)cc1,-2.7,-3,-7,2,5497,-8,6
CC(=NCC1CCCO1)c1c(O)n(Cc2ccccc2)c(=O)[nH]c1=O (centres undefined),0.7,-17,0,-4,x,17,11
O=C1CC(c2ccccc2)CC2=C1CN(C1CCCCC1)CN2 (centres undefined),5.4,-19,x,5,23766*,4,6
CCN(CC)CCN(C(=O)CN1C(=O)CCC1=O)c1nc2cc3c(cc2s1)OCO3,1.4,-3,4,3,x,11,8
COC(=O)C1=C(c2ccc(OC(F)(F)F)cc2)CC2CCC1N2C(=O)N1CCC(C)CC1 (centres undefined),-4.6,x,x,26,x,0,8
CC(C)Cc1[nH]c(=O)c(C#N)c2c1CCCC2,4.7,-12,-11,0,4335,-5,1
CN(N=Cc1ccccc1O)C(=S)c1ccccc1,6.2,x,x,17,x,3,4
Cc1nn(C)c(Cl)c1CN1CCCC(C(=O)Nc2ccc(-c3cscn3)cc2)C1 (centres undefined),1.2,-3,8,9,x,-1,-14
COc1cccc(NC(=O)CN(C)C(=O)CCCc2nc3ccccc3c(=O)[nH]2)c1,5.4,-13,x,2,5373,10,6
O=C(NCc1ccco1)c1ccc2c(c1)N(Cc1ccccc1)CCS2,-3.0,-4,-3,8,4121,12,0
Cc1ccccc1NC(=O)CCl,3.3,-19,7,11,3670,24,8
COc1ccc(NC(=O)c2sc3nc(N4CCOCC4)c4c(c3c2N)CC(C(C)C)OC4)c(OC)c1 (centres undefined),2.0,11,-6,2,4599,-12,1
O=C(CN1CCCC1)NC1C2CC3CC(C2)CC1C3 (centres undefined),3.9,-27,3,3,10964,19,3
COc1ccc(C(OCC(O)CNC(C)c2ccccc2)c2ccc(OC)cc2)cc1 (centres undefined),0.9,8,-5,-11,4618,-4,-3
COc1ccc(Cc2nnc(NC(=O)C3CC(=O)N(c4ccccc4C)C3)s2)cc1OC (centres undefined),5.5,-16,6,4,6226,9,2
CN1CCN(CCC(=O)N/N=C/c2ccccc2F)CC1,x,-4,22,x,4410,x,x
CCC(C#CCN1CCCCC1)(CC)OCCC#N,12,-23,-4,0,3107,-3,-1
Cc1ccc(NC(=O)CN(C)CC(=O)Nc2ccc(N3CCOCC3)cc2)cc1F,3.3,-1,1,4,4455,8,6
Cc1nnc(SCC(=O)Nc2nc(-c3ccccc3)cs2)n1N,1.7,-13,6,-9,22717*,5,14
COc1ccc(NC(=O)C(c2cc3c(cc2[N+](=O)[O-])OCO3)N(C)c2ccccc2)cc1 (centres undefined),x,-11,-4,x,2131,x,x
Cc1cc(/C=C2\SC(=Nc3ccc(N4CCOCC4)cc3)N(C)C2=O)c(C)n1-c1cccnc1,-4.2,-13,5,0,2379,-2,4
CCN(CC)c1ccc2cc(-c3nnc(-c4ccncc4)o3)c(=O)oc2c1,3.2,-37,x,-1,24761*,-25,10

# Remaining list, next part:
SMILES,Sa RN4220 lethal,PrP UTR inh,BJeLR lethal,Sa ugtP lethal,Autofluor counter,Mtb hypoxia rep,Mtb hypoxia rep growth
Cc1cccc(NCc2cccc3ccccc23)n1,1.0,-22,1,21,3874,-7,-5
C[C@H](NC(=O)c1cc2cc(Cl)ccc2n1C)C(=O)N1CCC(C(=O)O)CC1,1.4,-8,0,4,3186,0,-2
Cc1ccc(OCCn2cncn2)c([N+](=O)[O-])c1,4.0,-31,0,3,3193,-8,2
COc1ccc(CN2CCNC(=O)C2CC(=O)N2CCCO2)c(OC)c1 (centres undefined),1.0,-13,1,8,2151,0,1
COc1ccccc1CNS(=O)(=O)c1ccc2c(c1)NC(=O)CO2,0.5,1,4,-2,6009,-7,-1
COc1ccc(CNC(=O)C(c2ccc(O)cc2)N(Cc2ccco2)C(=O)c2snc(C(N)=O)c2N)cc1 (centres undefined),3.5,2,14,-11,5465,-1,-2
C=CCNc1nc(N)c([N+](=O)[O-])c(Nc2cccc(Cl)c2)n1,x,1,-20,x,3166,x,x
O=C(Cn1c(C(=O)N2CCN(C3CCCC3)CC2)cc2sccc21)c1ccccc1,4.1,-9,2,-2,9794,-9,9
Cc1cc(C)nc(SCC(=O)N/N=C/c2ccc3c(c2)OCO3)n1,x,-52,5,x,6894,x,x

# 6 entries from above, set out differently.
# Results follow in this order: Sa RN4220 lethal | PrP UTR inh | BJeLR lethal | Sa ugtP lethal | Autofluor counter | Mtb hypoxia rep | Mtb hypoxia rep growth
Cc1ccc(OCCn2cncn2)c([N+](=O)[O-])c1
  4.0 | -31 | 0 | 3 | 3193 | -8 | 2
COc1ccc(CN2CCNC(=O)C2CC(=O)N2CCCO2)c(OC)c1 (centres undefined)
  1.0 | -13 | 1 | 8 | 2151 | 0 | 1
COc1ccccc1CNS(=O)(=O)c1ccc2c(c1)NC(=O)CO2
  0.5 | 1 | 4 | -2 | 6009 | -7 | -1
COc1ccc(CNC(=O)C(c2ccc(O)cc2)N(Cc2ccco2)C(=O)c2snc(C(N)=O)c2N)cc1 (centres undefined)
  3.5 | 2 | 14 | -11 | 5465 | -1 | -2
C=CCNc1nc(N)c([N+](=O)[O-])c(Nc2cccc(Cl)c2)n1
  x | 1 | -20 | x | 3166 | x | x
O=C(Cn1c(C(=O)N2CCN(C3CCCC3)CC2)cc2sccc21)c1ccccc1
  4.1 | -9 | 2 | -2 | 9794 | -9 | 9

# Compounds as they come. Share with any hit: about 4%.
